# Source: PubChem BioAssay
# RE007 growth inh: less growth of the S. pombe RE007 Vpr strain; S. pombe RE007 Vpr strain, BacTiter-Glo ATP luminescence, 24 h; control for the full effect not named in the record; Potency, µM (doses to about 92.2 µM), without a hit: top-dose activity change, negative = less growth; 360,000 tested, 0.21% active; AID 651644; active = well fitted falling curve with a large enough effect; inconclusive = small, poorly fitted or top-dose-only effect; inactive = no such curve, though single readings can be large or run the other way;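 note: % is set by controls: 0 for no effect and ±100 for the full control effect; nearly all actives have a fitted effect of over 50% in size; the assay follows cell death caused by Vpr and the record does not say whether a fall means rescue or toxicity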
#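 Fission yeast strain RE007, carrying one chromosomally integrated HIV-1 vpr copy, was seeded at OD 0.01 in PMG+AL medium with 23 nL pinned compound. After 24 h at 30 °C and 99% humidity, viability was read by BacTiter-Glo luminescence.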
# Lassa entry inh: inhibitors of Lassa virus binding or cell entry; Lassa virus pseudotype entry inhibition, cell reporter; control for the full effect not named in the record; 300,000 tested, 1.2% active; AID 540256; Potency, µM (top dose mostly 37.9 µM), without a hit: top-dose activity change, negative = inhibition, usual class: inhibitors; active means well fitted inhibition curve with a large enough effect; inconclusive means small, poorly fitted or top-dose-only effect, or effect the other way; inactive means flat fitted curve, though single readings scatter; tested in HEK293 cells; note: % is set by controls: 0 for no effect and ±100 for the full control effect; nearly all actives have a fitted effect of over 50% in size; luciferase read-out
# Marburg entry inh: Marburg virus entry inhibition; Marburg virus pseudotyped entry inhibition, cell reporter; control for the full effect not named in the record; about a third of the inactives were read at about 46 µM; Potency, µM (top dose mostly 37.8 µM), for the others: at the top dose activity change, negative = inhibition, hits mostly inhibitors; 300,000 tested, 1.8% active; active = well fitted inhibition curve with a large enough effect; inconclusive = small, poorly fitted or top-dose-only effect, or effect the other way; inactive = flat fitted curve, though single readings scatter; tested in HEK293 cells; about a fifth of its hits are not listed in these tables; note: % is set by controls: 0 for no effect and ±100 for the full control effect; luciferase read-out
# SARS PLpro yeast: SARS-CoV PLP inhibition in yeast | S. cerevisiae expressing SARS-CoV PLpro, growth rescue; control for the full effect not named in the record | Potency, µM (highest dose often 32.9 µM), inactives show at the top dose activity, positive = growth rescue | 330,000 tested, 0.19% active | AID 485353; note: 0% is about no effect; nearly all actives have a fitted effect of over 55% in size; growth read by luminescence after 48 h
# StopGo reporter: FMDV 2A StopGo reporter, luciferase signal; 410,000 tested, 1.2% active; human cells with a luciferase reporter of 2A StopGo recoding; control for the full effect not named in the record; Potency, µM (series often up to 57.9 µM), for inactives: at the highest dose signal change, negative = less light; AID 1159524; active = well fitted falling curve with a large enough effect; inconclusive = small, poorly fitted or top-dose-only effect; inactive = no such curve, though single readings can be large or run the other way; tested in HEK293T cells; note: % is set by controls: 0 for no effect and ±100 for the full control effect; nearly all actives have a fitted effect of over 45% in size; luciferase light after 4 h
# Cruzain inh Det: cruzain (T. cruzi) inhibition with detergent. P25779. purified cruzain, Z-FR-AMC fluorescence, 0.01% Triton. Potency, µM, inactives show max response, negative = inhibition, most hits filed as inhibitors. 200,000 tested, 0.43% active. AID 1478; active = well fitted curve in the direction sought with a large enough effect; inconclusive = small, poorly fitted or top-dose-only effect, or another doubt; inactive = no such curve, though single readings can be large; an effect the other way counts as inactive or inconclusive;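 note: plate controls were neutral wells for no effect and buffer without enzyme for full effect; nearly all actives have a fitted effect of over 40% in size; top concentration of the series not given in the record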
# Target sequence (P25779 123-467 limits assumed): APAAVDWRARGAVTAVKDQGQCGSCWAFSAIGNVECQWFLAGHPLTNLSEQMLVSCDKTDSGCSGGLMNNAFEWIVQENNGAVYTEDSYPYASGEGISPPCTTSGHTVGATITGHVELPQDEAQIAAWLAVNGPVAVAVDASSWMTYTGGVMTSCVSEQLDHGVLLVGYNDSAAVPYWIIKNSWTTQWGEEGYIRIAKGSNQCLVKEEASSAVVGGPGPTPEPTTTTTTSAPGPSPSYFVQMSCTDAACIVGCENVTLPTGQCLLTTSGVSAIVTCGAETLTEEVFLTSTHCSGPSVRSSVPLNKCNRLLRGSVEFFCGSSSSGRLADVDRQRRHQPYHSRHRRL
#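 Cysteine protease activity tested under reducing, mildly acidic conditions (100 mM sodium acetate pH 5.5, 5 mM DTT) plus 0.01% Triton X-100. Cruzain 1.5 nM; substrate Z-FR-AMC 2 uM; 15 min compound preincubation at room temperature.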
# NS1 inh: inhibitors of influenza NS1 protein function | S. cerevisiae slowed by influenza A NS1, growth recovery by OD600 | Potency, µM (highest dose often 46.1 µM), for the others: top-dose activity, positive = more growth | 270,000 tested, 0.4% active; note: actives are rising curves; nearly all actives have a fitted effect of over 50% in size
#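 A cell-based growth assay was used: compounds that relieve NS1-induced slow growth of budding yeast raise OD600. Assay medium was yeast nitrogen base with ammonium sulphate and -URA supplement, pH 6.0, with 2% galactose.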
# Cruzain noTriton: blocks cruzain activity in detergent-free assay | purified cruzain, Z-FR-AMC fluorescence, no detergent | Potency, µM, for the others: max response, negative = inhibition, usual class: inhibitors | AID 1476 | 200,000 tested, 2.3% active; active = well fitted curve in the direction sought with a large enough effect; inconclusive = small, poorly fitted or top-dose-only effect, or another doubt; inactive = no such curve, though single readings can be large; an effect the other way counts as inactive or inconclusive;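 note: plate controls were enzyme without inhibitor for no effect and buffer without enzyme for full effect; nearly all actives have a fitted effect of over 40% in size; top concentration of the series not given in the record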
#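 Detergent-free condition (0.00005% Triton X-100) in acetate buffer pH 5.5 with DTT. 1.5 nM enzyme and compound were pre-mixed 15 min, then 2 uM Z-FR-AMC substrate added; reaction progress from fluorescence change between first and third reads (60 s).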
# Active calls of the source: *; ? = inconclusive; nt = not tested or not shown; & = joins results of further samples; [ ] = another dose, or the depositor's remark. Unless noted, calls come from the whole dose curve; as a rule, active means well fitted rising curve with a large enough effect; inconclusive means small, poorly fitted or top-dose-only effect; inactive means no such curve, though single readings can be large or run the other way. Potency is the fitted concentration of half-maximal effect.
SMILES,RE007 growth inh,Lassa entry inh,Marburg entry inh,SARS PLpro yeast,StopGo reporter,Cruzain inh Det,NS1 inh,Cruzain noTriton
COc1ccccc1N(C(=O)c1snc(C(N)=O)c1N)C(C(=O)NCc1ccccc1)c1ccc(C)o1 (stereo not given),16%,?,-25%[46.1 µM],3%,10%,nt,11%,nt
Cc1cccnc1CC(C)NC(=O)c1cc(COc2cncc(Cl)c2)on1 (stereo not given),0%,-16%[46.1 µM],-6%[46.1 µM],3%,14%,nt,-8%,nt
CC(=O)Oc1ccc2c(c1)cc(C)n2C,6%,-2%,21%,-12%,-3%,-3.5%,21%,15%
OC(CNCc1ccccc1)c1ccccc1 (stereo not given),1%,?,-26%,1%,-3%,nt,1%,nt
COc1ccc(CC2(CO)CCN(S(=O)(=O)N(C)C)CC2)cc1,-8%,nt,nt,0%,-20%,nt,-8%,nt
COc1cc(OC)cc(C(=O)NCC(=O)OCC(=O)NC(C)(C)C)c1,20%,1%,-7%,11%,-13%,-1.2%,5%,2%
CCCC(=O)NC(=S)Nc1cccc(NC(=O)c2ccccc2Cl)c1,7%,0%,-1%,-3%,-5%,-27%,-7%,-5%
COc1ccccc1NS(=O)(=O)c1cccc(NC(=O)c2sc3ccccc3c2Cl)c1,-20%,?,?,1%,14%,nt,3%,nt
O=C(Nc1ccc(C(=O)N2CCOCC2)cc1)c1cc(-c2cccnc2)nc2ccc(Cl)cc12,6%,?,-5%[46.1 µM],1%,?,nt,0%,nt
COc1ccccc1N1C(=O)C2C(c3ccccc3F)NN(C(=O)c3ccc(C)cc3)C2C1=O (stereo not given),5%,5%,13%,-21%,18%,-4.0%,0%,3%
CCCn1c(SCC(=O)N2c3ccccc3Sc3ccccc32)nc2ccccc21,-8%,-12%,?,-23%,?,-3.4%,18%,?
Cc1cc(C)cc(NC(=O)CCN2CCCC2)c1,-11%,nt,nt,0%,11%,nt,-1%,nt
CC1=C(C(=O)OC(C)C)C(c2ccccc2)NC(=O)N1C (stereo not given),-4%,nt,nt,0%,-1%,nt,21%,nt
O=[N+]([O-])c1cccc(-c2cn3ccccc3n2)c1,-9%,-26%,-13%[46.1 µM],0%,29%,nt,0%,nt
COc1ccc(NC(C)=O)c2nc(C)c(C)nc12,8%,15%,0%,6%,0%,-1.0%,4%,4%
CC(C)CCNc1nc2c(S(=O)(=O)c3ccc(Br)cc3)nnn2c2ccsc12,nt,10%[46.1 µM],nt,nt,-23%,3.6%,nt,?
O=C(NCc1ccco1)Nc1ccccc1Cl,-7%,23%,27%,-5%,37%[activator],4.0%,-6%,-7%
O=C(CSC1=NS(=O)(=O)c2cc(F)ccc2N1)Nc1cccc(F)c1,0%,-1%[46.1 µM],4%,-3%,-4%,nt,nt,nt
COc1cc(OC)cc(C(=O)NC2CCSc3ccccc32)c1 (stereo not given),-6%,nt,nt,13%,15%,nt,13%,nt
Cc1cc2cc3c(cc2nc1SCC(=O)N1CCCC1)OCCO3,6%,-7%,?,1%,3%,nt,-4%,nt
COc1ccc(CCC(=O)NNC(=O)c2ccc(F)cc2)cc1,-9%,14%,11%[46.1 µM],-2%,4%,nt,8%,nt
COc1ccc(N2C(=O)CSC(c3ccccc3)C2=O)cc1 (stereo not given),3%,13%,-6%[46.1 µM],2%,-6%,nt,-2%,nt
Cc1ccc(Cc2c(C)nc3nc(SCC(=O)NCCCN4CCCCC4)nn3c2C)cc1,-13%,nt,?,-2%,-20%,nt,-2%,nt
CCCc1nnc(SCC(=O)NC2CCCC2)n1CCOC,4%,23%[46.1 µM],12%[46.1 µM],22%,-5%,nt,-5%,nt
COC(=O)c1ccc(C(=O)NC(=S)Nc2ccc3nc(SC)sc3c2)cc1,15%,16%,?,21%,-7%,1.0%,2%,-10%
# (more compounds)
SMILES,RE007 growth inh,Lassa entry inh,Marburg entry inh,SARS PLpro yeast,StopGo reporter,Cruzain inh Det,NS1 inh,Cruzain noTriton
N#CCN1C(=O)C(=O)N(Cc2cccc(Cl)c2)C1=O,13%,nt,nt,0%,2%,nt,0%,nt
COc1ccc(N(CC(=O)NCCc2ccc(Cl)cc2)S(=O)(=O)c2c(C)[nH]c(=O)[nH]c2=O)cc1,1%,-4%[46.1 µM],18%[46.1 µM],-3%,?,nt,nt,nt
N#CCCN(Cc1ccccc1)C(=S)Nc1ccccc1,-5%,13%,4%,1%,-2%,1.5%,5%,-3%
O=C(NCCc1ccccc1)c1ccc2c(c1)N(Cc1ccccc1)CCS2,8%,nt,nt,14%,26%,nt,21%,nt
COc1ccc(CCN(C)CC(O)COC(c2ccc(F)cc2)c2ccc(F)cc2)cc1OC (stereo not given),0%,?,5.6µM*,1%,-11%,nt,2%,nt
COc1ccc(S(=O)(=O)NCC(c2cccnc2)N2CCN(C)CC2)cc1C (stereo not given),0%,nt,nt,-16%,-17%,-0.9%,?,-3%
CC(C(=O)Nc1cccnc1)N1C(=O)c2ccccc2C1=O (stereo not given),-3%,1%,13%,3%,nt,0.8%,-4%,7%
CC(=O)Nc1ccc2c(c1)OCCOCCOc1cc(NC(C)=O)ccc1OCCO2,0%,8%,9%[46.1 µM],-1%,0%,nt,4%,nt
CCN1CCSc2ccc(C(=O)NCc3ccc(OC)cc3)cc21,nt,-25%[46.1 µM],4%[46.1 µM],nt,1%,0.4%,nt,-8%
COc1ccc(-c2cnnn2-c2ccc(N)cc2)cc1OC,13%,-17%,20%,15%,6%,0.7%,8%,-5%
COc1ccc(OC)c(C2C3=C(CC(C)(C)CC3=O)Nc3nnnn32)c1 (stereo not given),0%,16%,-21%,11%,-28%,-1.6%,5%,7%
N#Cc1nc(-c2ccc(COc3ccc(Cl)cc3)o2)oc1N1CCN(c2ccccc2)CC1,nt,-8%[46.1 µM],30%[46.1 µM],nt,-5%,-0.5%,nt,-10%
Cc1nc(C)c(-c2ccc(SCc3ccc(Cl)cc3)nn2)s1,-28%,nt,nt,-33%,-8%,nt,-2%,nt
COc1cccc(CN(C)C(=O)CSCC(=O)Nc2cc(C)on2)c1OC,0%,-1%,-5%[46.1 µM],4%,-4%,nt,nt,nt
Cc1cc(O)c(C(=O)Cc2csc(C)n2)c(O)c1,-3%,nt,nt,-1%,49%[activator],nt,-9%,nt
Cc1cc(C)nc(Nc2n[nH]c(C)n2)n1,-3%,16%,2%,0%,0%,nt,1%,nt
COCCn1cc(C(=O)NCCCN2CCC(C)CC2)c2c3ccccc3n(C)c2c1=O,-16%,4%,?,-4%,-22%,-5.4%,0%,11%
CC(=O)c1cccc(NC(=O)c2ccc(CN3CCc4ccccc4C3)cc2)c1,5%,nt,nt,27%,?,nt,2%,nt
CCOc1ccccc1NS(=O)(=O)c1ccc2[nH]c3c(c2c1)CCCCC3,nt,-3%[46.1 µM],nt,nt,0%,-8.0%,nt,?
O=C(CCSCCC(=O)Nc1ccccc1F)Nc1ccccc1F,9%,-3%,?,3%,-5%,-8.1%,-7%,-12%
CC1CCCCN1CCCNc1ccc(C(CC(N)=O)NC(=O)Cc2cccc3ccccc23)cc1[N+](=O)[O-] (stereo not given),9%,nt,nt,-2%,8%,nt,-2%,nt
NCCCCCc1nnc(SCc2cccc(Cl)c2)o1,8%,-27%,-22%,5%,-15%,4.8%,0%,3%
NC(=O)CSc1cn(CCNC(=O)c2cccs2)c2ccccc12,3%,nt,nt,-1%,1%,nt,5%&0%,nt
Cc1ccc(NC(=O)CN(C)S(=O)(=O)c2ccc3c(c2)n(C)c(=O)c(=O)n3C)cc1C,nt,-10%[46.1 µM],-4%[46.1 µM],nt,-2%,-0.1%,nt,3%
COc1ccc(C(=O)Nc2ccncc2)cc1[N+](=O)[O-],0%,nt,nt,4%,-16%,nt,25%,nt
# (continued)
SMILES,RE007 growth inh,Lassa entry inh,Marburg entry inh,SARS PLpro yeast,StopGo reporter,Cruzain inh Det,NS1 inh,Cruzain noTriton
CCOCCn1c(=O)c2c(nc3n2CCCN3Cc2ccccc2)n(C)c1=O,10%,-4%[46.1 µM],14%[46.1 µM],-2%,-17%,nt,0%,nt
CN(C)c1ccc(CNn2cnnc2SCc2ccc(F)cc2)cc1,1%,1%,-3%,-4%,-23%,-2.7%,-15%,5%
CC(=O)c1sc(C(=O)O)c(-c2ccco2)c1-c1ccco1,9%,nt,nt,-1%,2%,nt,7%,nt
Cc1ccc(C)c(N2CCN(C(=O)CNS(=O)(=O)c3cccs3)CC2)c1,-9%,-9%,?,-4%,nt,-3.4%,6%,0%
O=c1c2ccccc2ncn1Cc1ccc2c(c1)OCO2,8%,nt,nt,-4%,8%,nt,-5%,nt
COc1cc(NS(=O)(=O)c2ccc(-c3cc(C)no3)cc2)cc(OC)c1,nt,-17%[46.1 µM],nt,nt,-5%,-8.0%,nt,-4%
C=C(C)CNC(=S)Nc1nc2c(cc1C(=O)OCC)CCCC2,10%,7%,40%,4%,34%[activator],-6.7%,21%,9%
C/C=C/c1ccc(OCCSc2nc(C)cc(=O)[nH]2)c(OC)c1,13%,?,4%,-4%,26%,-1.4%,-10%,-5%
Cc1cc(C)nc(SCC(=O)N(C)CC(=O)Nc2ccccc2Br)n1,-1%,-3%,-7%,6%,-20%,nt,nt,nt
O=C(NC1CC1)c1sc2ccccc2c1Cl,?,10%[46.1 µM],?,-3%,42%[activator],nt,-6%,nt
CN1CCN(S(=O)(=O)Cc2ccccc2Cl)CC1,3%,nt,nt,3%,-17%,nt,0%,nt
CCOc1ccccc1NC(=O)CCS(=O)(=O)c1ccc(Br)cc1,5%,7%,5%,-6%,-14%,nt,-1%,nt
CC(=O)N1CCN(C(=O)CCC(=O)O)CC1,0%,nt,nt,0%,-12%,nt,-1%,nt
COc1cc(C(=O)Nc2ccc(O)cc2C(=O)O)ccc1OC(C)=O,-16%,0%,18%&18%,-4%,9%,-4.6%,13%,-4%
C=CCNC(=O)c1ccccc1NC(=O)c1ccc(Cl)c(S(=O)(=O)Nc2cccc(C)c2C)c1,0%,?,?,-3%,41%[activator],-5.2%,16%,0%
CCCCN(C)CCCNC(=O)CS(=O)Cc1nc(-c2ccc(OC)c(OC)c2)oc1C (stereo not given),-17%,1%,-4%&4%,-2%,-15%,0.1%,-2%,6%
COc1ccccc1NC(=O)Nc1ccc(Cc2ccncc2)cc1,23%,?,14%[46.1 µM],-1%,6%,nt,-7%,nt
